D2 agonist = human D2 receptor agonism in beta-arrestin assay | P14416 | activation, % (concentration not given with the values) | 360,000 tested, 0.084% active | DiscoveRx PathHunter D2 beta-arrestin, luminescence, 90 min; 100% = 57 uM dopamine signal; in the data active = activation above about 40%; inconclusive = about 15% to 40%; inactive = below about 15%; further: compound concentration not given in the record; the text of the record calls up to 30% inactive
Target sequence (P14416 whole entry, looked up): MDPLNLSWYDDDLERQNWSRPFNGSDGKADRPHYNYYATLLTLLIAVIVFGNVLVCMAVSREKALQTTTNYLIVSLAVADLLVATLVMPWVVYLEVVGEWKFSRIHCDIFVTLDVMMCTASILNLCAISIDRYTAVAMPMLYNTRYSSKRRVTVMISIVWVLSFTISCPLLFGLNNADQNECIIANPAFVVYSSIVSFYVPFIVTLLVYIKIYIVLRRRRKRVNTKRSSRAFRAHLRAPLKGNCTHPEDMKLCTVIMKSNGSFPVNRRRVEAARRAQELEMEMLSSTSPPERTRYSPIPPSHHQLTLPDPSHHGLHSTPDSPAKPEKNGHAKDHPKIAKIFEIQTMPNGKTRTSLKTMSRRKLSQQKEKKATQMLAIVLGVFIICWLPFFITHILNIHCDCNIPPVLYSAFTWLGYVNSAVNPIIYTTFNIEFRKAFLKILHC
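Agonist mode: compounds alone added to overnight-plated D2 PathHunter cells for 90 min at 37 C, with 57 uM final dopamine (EC100) defining full response. Beta-arrestin recruitment detected by chemiluminescent reagent, read after 1 h at ambient temperature.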
Six1-Eya2 blk = inhibitors of human Six1/Eya2 interaction | activity change, % (concentration not given with the values) | Q15475+O00167 | 360,000 tested, 0.56% active | AlphaScreen GST-Six1/His-Eya2 binding, biochemical; hits give low values; control for the full effect not named in the record | AID 651725; in the data active = activity change below about -65%; inconclusive = about -30% to -65%; inactive = above about -30%; further: on the % scale 0 is the no-effect control and ±100 the full control effect
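AlphaScreen luminescence read after one hour at 37 °C in darkness. Pin-transferred compounds met GST-Six1 and His-Eya2 protein (5X stock 250 nM/500 nM) plus glutathione donor and Ni-chelate acceptor beads (5X, 50 ug/mL).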
TRPML1 agonist = human mucolipin-1 channel agonism; Q9GZU1; TRPML1-expressing cells, Ca2+ dye fluorescence, FDSS; host cell line not named in the record; reference of the full effect not given here; activation, % (concentration not given with the values); 410,000 tested, 0.12% active; AID 624414; in the data active = activation above about 50%; inconclusive = about 30% to 50%; inactive = below about 30%; further: 0% is about no effect; the text of the record puts the active cut at 80%
Target sequence (Q9GZU1 whole entry, looked up): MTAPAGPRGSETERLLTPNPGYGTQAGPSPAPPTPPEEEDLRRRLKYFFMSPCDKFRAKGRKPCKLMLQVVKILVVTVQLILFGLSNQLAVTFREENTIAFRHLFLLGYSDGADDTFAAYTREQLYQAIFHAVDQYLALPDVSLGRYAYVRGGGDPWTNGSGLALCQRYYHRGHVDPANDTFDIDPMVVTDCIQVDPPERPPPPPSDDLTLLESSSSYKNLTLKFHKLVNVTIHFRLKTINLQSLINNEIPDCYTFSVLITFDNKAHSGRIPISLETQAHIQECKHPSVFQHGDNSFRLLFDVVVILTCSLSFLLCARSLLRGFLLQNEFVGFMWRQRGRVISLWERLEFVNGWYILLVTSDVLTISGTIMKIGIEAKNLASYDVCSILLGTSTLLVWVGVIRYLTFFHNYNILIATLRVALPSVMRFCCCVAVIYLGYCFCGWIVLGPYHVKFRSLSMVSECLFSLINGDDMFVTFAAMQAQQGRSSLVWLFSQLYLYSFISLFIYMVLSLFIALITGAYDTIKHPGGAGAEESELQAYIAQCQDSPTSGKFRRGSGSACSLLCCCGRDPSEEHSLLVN
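Kinetic FDSS Ca2+ read in Tet-induced TRPML1-DL cells (ABD Ca8 dye plus quencher, 45-90 min RT loading): baseline, then compound, then 110 s agonist window; EC80 agonist 54-4 at 4uM final added afterwards for a 110 s antagonist window.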
CtBP-E1A blk = CtBP/E1A binding inhibition. AID 651724. AlphaScreen GST-E1A/His-CtBP binding, 1536-well; hits give low values; control for the full effect not named in the record. 340,000 tested, 0.49% active. activity change, % (concentration not given with the values); in the data active means activity change below about -65%; inconclusive means about -30% to -65%; inactive means above about -30%; further: on the % scale 0 is the no-effect control and ±100 the full control effect
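Homogeneous bead-based format: GST-tagged E1A captured on glutathione donor beads, His-tagged CtBP on nickel acceptor beads; compounds precede bead addition by 2 h at 37 °C.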
TRPML1 inh = inhibitors of human TRPML1 channel. TRPML1-inducible cells, Ca2+ dye fluorescence, FDSS; hits give low values; inhibition of EC80 agonist-evoked calcium signal. activity change, negative = inhibition, % (no concentration beside the values). 390,000 tested, 0.02% active. AID 624415; in the data active means activity change below about -50%; inconclusive means about -30% to -50%; inactive means above about -30%;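 further: stimulus is agonist 54-4 at its EC80 concentration; on the % scale 0 is the no-effect control and ±100 the full control effect; compound concentration not given in the record; the text of the record puts the active cut at -80%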
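Tet-induced TRPML1-DL cells loaded with Ca8 no-wash calcium dye were read kinetically on FDSS. Compound addition was followed by EC80 agonist 54-4 (4 uM final); inhibition was read over 110 s.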
PINK1 modulator = modulators of PINK1 expression; PINK1 immunofluorescence, high-content cytometry, 24 h; Potency, µM (titrated, usually from 76.6 µM), for the others: at the top dose activation (PINK1 increase), usual class: activators; 410,000 tested, 0.2% active; AID 624263; active = well fitted activation curve with a large enough effect; inconclusive = small, poorly fitted or top-dose-only effect; inactive = flat fitted curve, though single readings scatter; cell line not stated here;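 further: potency means the concentration at half of the fitted maximal effect; % of control where 0% means no effect; nearly all actives have a fitted effect of over 65% in size; a mitochondrial uncoupler was the plate control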
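Cells are seeded, rested 12 hours, then given compound at five concentrations or DMSO for 24 hours. After fixation, blocking and antibody staining, PINK1 amount and mitochondrial localization are scored; CCCP serves as control.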
Numbers without * were called inactive; & = joins results of further samples; [ ] = another dose, or the depositor's remark.

`O=C(NC1CC1)c1ccc(CS(=O)c2ccc(Br)cc2)o1` (stereo unspecified) gave D2 agonist 1.9, Six1-Eya2 blk 3.5, TRPML1 agonist 0.9, CtBP-E1A blk 5.0, TRPML1 inh 22.5 and PINK1 modulator -1.1%.
Oc1c(C(c2cccs2)N2CCN(c3ccc(F)cc3)CC2)sc2ncnn12 (stereo unspecified) was read as D2 agonist -3.4, Six1-Eya2 blk -1.8, TRPML1 agonist -0.6, CtBP-E1A blk -25.9, TRPML1 inh -10.2 and PINK1 modulator 4.4%.
For CSc1cccc(NC(=S)N(CCN(C)C)C(C)c2ccncc2)c1 (stereo unspecified) the results were D2 agonist -3.5, Six1-Eya2 blk 0.0, TRPML1 agonist -0.9, TRPML1 inh -8.7 and PINK1 modulator 2.8%.
For CS(=O)(=O)Nc1ccc(C2=NN(C(=O)c3ccco3)C(c3cccc(F)c3)C2)cc1 (stereo unspecified) the results were D2 agonist 4.3, Six1-Eya2 blk -1.7, TRPML1 agonist 0.6, CtBP-E1A blk -8.1, TRPML1 inh 21.1 and PINK1 modulator 0.1%.
For CCOC(=O)N1CCN(S(=O)(=O)c2ccc(C(=O)N(CCN(C)C)c3nc4ccc(Cl)cc4s3)cc2)CC1 the results were D2 agonist -0.7, Six1-Eya2 blk -14.6, TRPML1 agonist 0.7, CtBP-E1A blk -8.1, TRPML1 inh -13.8 and PINK1 modulator -0.3%.
`COc1ccc(S(=O)(=O)NC2CC(C)(C)NC(C)(C)C2)cc1` gave D2 agonist 3.6, Six1-Eya2 blk 1.6, TRPML1 agonist 0.6, TRPML1 inh -2.3 and PINK1 modulator -0.4%.
COc1ccc(OC)c(NC(=O)CCNS(=O)(=O)c2cccc3nsnc23)c1 was read as D2 agonist 4.5, Six1-Eya2 blk 2.1, TRPML1 agonist -0.2&-0.7, CtBP-E1A blk 1.9, TRPML1 inh 3.7&1.8 and PINK1 modulator 2.2%&1.5%.
`C=C(C)Cn1c(SCCCO)nc2c1c(=O)[nH]c(=O)n2C` gave D2 agonist -2.0, Six1-Eya2 blk 2.8, TRPML1 agonist 0.0, CtBP-E1A blk -1.5, TRPML1 inh -11.5 and PINK1 modulator 3.4%.
For CC1Oc2ccccc2N(CC(=O)Nc2ccc(F)cc2)C1=O (stereo unspecified) the results were D2 agonist 3.1, Six1-Eya2 blk 10.3, TRPML1 agonist 0.2, CtBP-E1A blk -11.0, TRPML1 inh 0.0 and PINK1 modulator -0.9%.
For O=C1N=C(N2CCOCC2)S/C1=C\c1ccc(OS(=O)(=O)c2ccccc2)cc1 the results were D2 agonist -0.2, Six1-Eya2 blk 5.7, TRPML1 agonist 4.3, CtBP-E1A blk 2.0, TRPML1 inh -13.1 and PINK1 modulator -0.2%.
For COc1ccc([C@H]2C[C@H](O)[C@@H](n3cc(COC(=O)c4ccccc4)nn3)CN2CC2CCCCC2)cc1 the results were D2 agonist -1.6, Six1-Eya2 blk -11.1, CtBP-E1A blk -4.3 and PINK1 modulator -1.4%.
For CCOC(=O)C1CCN(C(=O)c2cccc(N3C(=O)NC4CC3(C)Oc3ccc(C)cc34)c2)CC1 (stereo unspecified) the results were D2 agonist 3.4, Six1-Eya2 blk -1.3, TRPML1 agonist -0.3, CtBP-E1A blk 3.8, TRPML1 inh -7.2 and PINK1 modulator -1.6%.

Brought forward from above: three entries, then new ones.
For O=C1N=C(N2CCOCC2)S/C1=C\c1ccc(OS(=O)(=O)c2ccccc2)cc1 the results were D2 agonist -0.2, Six1-Eya2 blk 5.7, TRPML1 agonist 4.3, CtBP-E1A blk 2.0, TRPML1 inh -13.1 and PINK1 modulator -0.2%.
For COc1ccc([C@H]2C[C@H](O)[C@@H](n3cc(COC(=O)c4ccccc4)nn3)CN2CC2CCCCC2)cc1 the results were D2 agonist -1.6, Six1-Eya2 blk -11.1, CtBP-E1A blk -4.3 and PINK1 modulator -1.4%.
For CCOC(=O)C1CCN(C(=O)c2cccc(N3C(=O)NC4CC3(C)Oc3ccc(C)cc34)c2)CC1 (stereo unspecified) the results were D2 agonist 3.4, Six1-Eya2 blk -1.3, TRPML1 agonist -0.3, CtBP-E1A blk 3.8, TRPML1 inh -7.2 and PINK1 modulator -1.6%.
`CCCCNC(=O)NNC(=O)c1ccoc1C` gave D2 agonist -1.8, Six1-Eya2 blk -2.1, TRPML1 agonist -0.5, CtBP-E1A blk -1.2, TRPML1 inh -3.1 and PINK1 modulator 3.9%.
For Cc1cc(C)n(CC(=O)NNC(=O)CC(C)c2ccccc2)n1 (stereo unspecified) the results were D2 agonist -2.9, Six1-Eya2 blk 9.3, TRPML1 agonist 0.0, TRPML1 inh 2.1 and PINK1 modulator 0.5%.
For CN1CCN(CC(=O)N/N=C/c2ccc(F)c(F)c2)CC1 the results were D2 agonist -1.1, Six1-Eya2 blk -7.1, TRPML1 agonist 0.4, CtBP-E1A blk -6.0, TRPML1 inh 28.6 and PINK1 modulator 2.2%.
`COc1ccc(S(=O)(=O)NCc2cccnc2)cc1NC(=O)c1ccc(Cl)cc1` gave D2 agonist -4.8, Six1-Eya2 blk -7.7, TRPML1 agonist -0.1, CtBP-E1A blk 1.5, TRPML1 inh -14.6 and PINK1 modulator 0.9%.
For COc1ccccc1-c1noc(Cn2cc(S(=O)(=O)N3CCCC3)ccc2=O)n1 the results were D2 agonist 6.1, Six1-Eya2 blk 2.8, TRPML1 agonist 0.1, CtBP-E1A blk 2.7, TRPML1 inh -24.7 and PINK1 modulator 5.1%.
`Cc1c(CCC(=O)O)c(=O)oc2c(C)c3occ(-c4ccc(Cl)cc4)c3cc12` gave D2 agonist 2.0, Six1-Eya2 blk -86.3*, TRPML1 agonist -1.1, CtBP-E1A blk -80.6*, TRPML1 inh -22.0 and PINK1 modulator -0.8%.
Screening N#Cc1ccccc1OCC(=O)OCC(=O)NC1CC1 returned D2 agonist 3.4, Six1-Eya2 blk -0.3, TRPML1 agonist -0.5, CtBP-E1A blk 11.1, TRPML1 inh 1.3 and PINK1 modulator 0.8%.
CC(=O)c1ccc(S(=O)(=O)Nc2ccc(C(=O)NC3CC3)cc2)cc1 was read as D2 agonist -4.7, Six1-Eya2 blk 0.3, TRPML1 agonist 0.4, CtBP-E1A blk -17.3, TRPML1 inh 35.7 and PINK1 modulator 3.2%.
`O=Cc1c(Cl)nc2ccccn2c1=O` gave D2 agonist 3.2, Six1-Eya2 blk -21.1, TRPML1 agonist 2.6, CtBP-E1A blk 0.0, TRPML1 inh -21.2 and PINK1 modulator 8.5%.
For CCC(=O)N1CCCC1(C)C(=O)Nc1ccc2c(c1)CCN2C(C)=O (stereo unspecified) the results were D2 agonist 7.7, Six1-Eya2 blk 6.7, TRPML1 agonist -0.2, CtBP-E1A blk -9.3 and PINK1 modulator 1.6%.
For COc1ccc(-c2c3c(=O)n(C)c(=O)n(C)c3cn2Cc2ccccn2)cc1 the results were D2 agonist -1.0, Six1-Eya2 blk -8.5, TRPML1 agonist 0.7, CtBP-E1A blk -11.2, TRPML1 inh 26.6 and PINK1 modulator 0.2%[38.3 µM].
Screening CN(CC(=O)Nc1ccc(F)c(F)c1F)C(=O)CCN1C(=O)C2CC=CCC2C1=O (stereo unspecified) returned D2 agonist -3.1, Six1-Eya2 blk -4.9, TRPML1 agonist -1.2, CtBP-E1A blk -0.5, TRPML1 inh -5.9 and PINK1 modulator 3.3%.
COC(=O)c1cnn(C(=O)c2cc(OC)ccc2Br)c1N was read as D2 agonist 0.7, Six1-Eya2 blk -0.1, TRPML1 agonist -0.3, CtBP-E1A blk 3.3, TRPML1 inh -15.6 and PINK1 modulator inconclusive.
CCOC(=O)c1cnn(-c2ncnc3sc4c(c23)CCC4)c1N was read as D2 agonist -1.1, Six1-Eya2 blk 1.5, TRPML1 agonist 0.6, CtBP-E1A blk 3.0 and TRPML1 inh 10.3.
For CC(O)C(NS(=O)(=O)c1ccc(Cl)cc1)C(=O)OCC(=O)Nc1cccnc1Cl (stereo unspecified) the results were D2 agonist -4.6, Six1-Eya2 blk 2.9, TRPML1 agonist -0.1, CtBP-E1A blk -22.8, TRPML1 inh -18.5 and PINK1 modulator -2.6%.
`COCCNC(=O)c1ccc2c(c1)N(Cc1c(F)cccc1Cl)C(=O)c1ccccc1S2` gave TRPML1 agonist 0.5, TRPML1 inh -5.5 and PINK1 modulator 2.7%.
CCOc1ccc(C(=O)N(Cc2ccc(C(C)C)cc2)Cc2ccco2)cc1 was read as TRPML1 agonist 1.7, TRPML1 inh -6.6 and PINK1 modulator 2.9%.
For Cc1oc2c(c1C(=O)Nc1cccc(C(=O)O)c1)CCCC2 the results were D2 agonist -0.5, Six1-Eya2 blk -5.9, TRPML1 agonist 0.5, CtBP-E1A blk 2.8, TRPML1 inh 7.1 and PINK1 modulator -3.5%[38.3 µM].
`O=C(Cc1cccc(NC(=O)C2CCN(C(=O)C3CCCCC3)CC2)c1)Nc1cccc(C(=O)N2CCCCC2)c1` gave D2 agonist -1.6, Six1-Eya2 blk 0.1, TRPML1 agonist 1.6, CtBP-E1A blk -1.4, TRPML1 inh -9.1 and PINK1 modulator -0.8%.
Screening COc1ccc2[nH]c3c(c2c1)CCN1C(=O)C(CC(=O)NCc2ccc(OC)c(OC)c2)C[C@H](C(=O)N2CCOCC2)[C@@]31C (stereo partly specified) returned D2 agonist -4.1, Six1-Eya2 blk 1.8, TRPML1 agonist -1.0, CtBP-E1A blk 1.6, TRPML1 inh 1.2 and PINK1 modulator 0.1%.
`CCc1ccc(-n2nc3cc(C)c(NC(=O)c4ccccc4C)cc3n2)cc1` gave TRPML1 agonist -0.7, TRPML1 inh -11.8 and PINK1 modulator 0.9%.
For COc1cccc(-c2cc(C(=O)Nc3cccnc3Cl)no2)c1 the results were D2 agonist -4.8, Six1-Eya2 blk 7.4, TRPML1 agonist 0.0&-0.1, CtBP-E1A blk 17.2, TRPML1 inh 6.5&6.0 and PINK1 modulator 3.4%&1.2%.
`O=C(Nc1nc2ccccc2n1Cc1ccccc1)c1ccc(COc2ccccc2[N+](=O)[O-])o1` gave D2 agonist -2.2, Six1-Eya2 blk 0.3, TRPML1 agonist 2.0, CtBP-E1A blk 5.6, TRPML1 inh -6.3 and PINK1 modulator inconclusive.
COc1ccc(CC(NC(C)=O)C(=O)NC2CCN(c3c(Cc4ccccc4)c(C)nc4ncnn34)CC2)c(OC)c1 (stereo unspecified) was read as D2 agonist 10.2, Six1-Eya2 blk -2.5, TRPML1 agonist -0.3, CtBP-E1A blk 7.1, TRPML1 inh 16.0 and PINK1 modulator 2.8%.
CN(c1ccccc1)c1nc(N)c([N+](=O)[O-])c(N2CCCCCC2)n1 was read as D2 agonist 0.1, Six1-Eya2 blk -20.5, TRPML1 agonist 0.8, CtBP-E1A blk -12.4, TRPML1 inh 7.2 and PINK1 modulator 6.8%.
Screening COc1ccc(N2CCN(C(c3ccc4ncccc4c3)c3nnnn3C(C)C)CC2)cc1 (stereo unspecified) returned D2 agonist -2.6, Six1-Eya2 blk -1.7, TRPML1 agonist 0.1, CtBP-E1A blk -3.5, TRPML1 inh 18.2 and PINK1 modulator 0.4%.

Compound activity deposited in PubChem BioAssay by National Center for Advancing Translational Sciences (NCATS).
